A1 apoptosis 2: A1 inhibition read as caspase activation; AID 2465; MEF A1-2A-BIM cells, caspase-Glo luminescence, 3 h; percent of clofoctol response, DMSO zero; caspase activation, % (concentration not given with the values); 24,000 tested, under 10 active; in the data active means caspase activation above about 5.9%;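 further: wells of about 30 µL received 50 nL stock; the first replicate is given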
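Material: mouse embryonic fibroblasts co-expressing A1 and BIM (A1-2A-BIM), primed for A1 dependence / Quantity: 2500 cells/well / Buffer or medium: RPMI-1640 growth medium with 10% FBS / Doses: 50 nL compound per well, pinned / Schedule: 3 h compound exposure at 37 °C / Signal: Caspase-Glo luminescence (DEVD substrate) / Measure: Caspase-3/7 activation, seen as rise in luminescence signal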
An asterisk follows results filed as active.

Cc1noc(C)c1NC(=O)N(C)C[C@H]1OCCCC[C@H](C)Oc2ccc(NS(=O)(=O)c3cn(C)cn3)cc2C(=O)N([C@@H](C)CO)C[C@H]1C was read as A1 apoptosis 2 -0.3.
CC(C)NC(=O)N(C)C[C@H]1OCCCC[C@@H](C)Oc2ccc(NS(=O)(=O)c3ccccc3)cc2C(=O)N([C@H](C)CO)C[C@H]1C was read as A1 apoptosis 2 -1.1.
C[C@H]1CN([C@@H](C)CO)C(=O)c2cccc(NC(=O)c3ccncc3)c2O[C@H]1CN(C)Cc1ccc(C(=O)Nc2ccccc2N)cc1 was read as A1 apoptosis 2 -0.8.
For C=CC[C@@]12N=C(c3ccc(OCCCO)cc3)O[C@@H]1c1ccccc1N(CCS(=O)(=O)c1ccccc1)C2=O the results were A1 apoptosis 2 -0.1.
For C[C@@H]1CCCCO[C@@H](CN(C)C(=O)Cc2ccccc2)[C@@H](C)CN([C@H](C)CO)C(=O)c2cc(NC(=O)Nc3ccccc3)ccc2O1 the results were A1 apoptosis 2 0.0.
For CC(C)NC(=O)N(C)C[C@@H]1Oc2c(NS(=O)(=O)c3ccc(F)cc3)cccc2C(=O)N([C@@H](C)CO)C[C@H]1C the results were A1 apoptosis 2 -0.2.
C[C@@H]1CN([C@@H](C)CO)C(=O)c2cc(NC(=O)Nc3cccc4ccccc34)ccc2O[C@H]1CN(C)C(=O)Nc1ccc(F)cc1 was read as A1 apoptosis 2 -1.2.
C[C@H](CO)N1C[C@H](C)[C@@H](CN(C)C(=O)Nc2ccc3c(c2)OCO3)Oc2ccc(NC(=O)Cc3ccccc3)cc2CC1=O was read as A1 apoptosis 2 -0.9.
Screening C[C@@H]1CCCCO[C@H](CN(C)S(=O)(=O)c2cn(C)cn2)[C@@H](C)CN([C@H](C)CO)C(=O)c2cc(N(C)C)ccc2O1 returned A1 apoptosis 2 0.0.
C[C@@H]1CN([C@H](C)CO)C(=O)c2cc(NC(=O)NC3CCCCC3)ccc2O[C@@H](C)CCCCO[C@H]1CN(C)C(=O)Nc1ccc2c(c1)OCO2 was read as A1 apoptosis 2 1.4.
For C[C@H]1CN([C@@H](C)CO)C(=O)c2cc(NC(=O)C3CC3)ccc2O[C@H]1CN(C)Cc1ccc(C(=O)O)cc1 the results were A1 apoptosis 2 0.1.
For C[C@@H]1CN([C@H](C)CO)C(=O)c2cc(NC(=O)Nc3ccc4c(c3)OCO4)ccc2O[C@H]1CN(C)Cc1ccc(C(F)(F)F)cc1 the results were A1 apoptosis 2 -1.0.
For C[C@H]1CCCCO[C@H](CN(C)C(=O)c2ccccc2)[C@@H](C)CN([C@@H](C)CO)C(=O)c2cc(NS(=O)(=O)c3cccs3)ccc2O1 the results were A1 apoptosis 2 -0.3.
For Cc1noc(C)c1S(=O)(=O)Nc1cccc2c1O[C@@H](CN(C)Cc1ccc(C(=O)Nc3ccccc3N)cc1)[C@@H](C)CN([C@@H](C)CO)C2=O the results were A1 apoptosis 2 -1.1.
For CNC[C@@H]1Oc2c(N)cccc2C(=O)N([C@H](C)CO)C[C@@H]1C the results were A1 apoptosis 2 -0.1.
`C[C@@H]1CN([C@@H](C)CO)C(=O)c2cc(NS(C)(=O)=O)ccc2O[C@@H](C)CCCCO[C@@H]1CN(C)C(=O)CCC(F)(F)F` gave A1 apoptosis 2 1.0.
C[C@@H]1CCCCO[C@@H](CN(C)C(=O)Nc2ccc3c(c2)OCO3)[C@@H](C)CN([C@H](C)CO)C(=O)c2cc(NC(=O)CCCCCC(=O)Nc3ccccc3N)ccc2O1 was read as A1 apoptosis 2 0.9.
For O=C1N(Cc2ccccc2)Cc2ccccc2C[C@@]12N=C(c1ccc(OCCCO)cc1)O[C@H]2c1ccccc1 the results were A1 apoptosis 2 -0.2.
Screening C[C@H]1CN([C@@H](C)CO)C(=O)Cc2cc(NS(=O)(=O)c3ccc(Cl)cc3)ccc2O[C@H]1CN(C)C(=O)NC1CCCCC1 returned A1 apoptosis 2 -1.3.
`C[C@@H]1CCCCO[C@H](CN(C)C(=O)NC2CCCCC2)[C@H](C)CN([C@H](C)CO)C(=O)c2cc(N(C)C)ccc2O1` gave A1 apoptosis 2 0.1.
C[C@@H]1CCCCO[C@@H](CN(C)C(=O)CCCN(C)C)[C@@H](C)CN([C@H](C)CO)C(=O)c2cc(NC(=O)C3CCCCC3)ccc2O1 was read as A1 apoptosis 2 0.4.
Screening C[C@H]1CN([C@@H](C)CO)C(=O)CCCn2cc(nn2)CO[C@@H]1CN(C)C(=O)Cc1ccccc1 returned A1 apoptosis 2 0.8.
For C[C@H](CO)N1C[C@H](C)[C@H](CN(C)CC2CCCCC2)OCCCC[C@H](C)Oc2ccc(NC(=O)c3ccccc3)cc2C1=O the results were A1 apoptosis 2 -0.7.
For C#CCNC(=O)C1=C[C@@H](C(C)(C)C)C[C@@H](OCc2ccc(CO)cc2)O1 the results were A1 apoptosis 2 0.5.
For C[C@H](CO)N1C[C@H](C)[C@H](CN(C)CC2CCCCC2)OCCCC[C@H](C)Oc2ccc(NS(C)(=O)=O)cc2C1=O the results were A1 apoptosis 2 0.1.
C[C@H]1CN([C@@H](C)CO)C(=O)Cc2cc(N(C)C)ccc2O[C@H]1CN(C)S(=O)(=O)c1cccs1 was read as A1 apoptosis 2 0.1.
For C[C@H](CO)N1C[C@H](C)[C@@H](CN(C)C(=O)Nc2ccccc2)Oc2ccc(NC(=O)Cc3cn(C)c4ccccc34)cc2C1=O the results were A1 apoptosis 2 -0.7.
Screening C[C@@H]1CN([C@@H](C)CO)C(=O)c2cc(NC(=O)CCCN(C)C)ccc2O[C@@H]1CN(C)Cc1ccc(-c2ccccc2)cc1 returned A1 apoptosis 2 0.2.
For C[C@H](CO)N1C[C@H](C)[C@H](CN(C)Cc2ccc(Cl)c(Cl)c2)Oc2ccc(NC(=O)Nc3ccccc3)cc2CC1=O the results were A1 apoptosis 2 1.2.
Screening C[C@H]1CN([C@@H](C)CO)C(=O)CCCn2cc(nn2)CO[C@H]1CN(C)C(=O)NC1CCCC1 returned A1 apoptosis 2 0.2.

A section from the list above, for reference:
C[C@H](CO)N1C[C@H](C)[C@@H](CN(C)C(=O)Nc2ccc3c(c2)OCO3)Oc2ccc(NC(=O)Cc3ccccc3)cc2CC1=O was read as A1 apoptosis 2 -0.9.
Screening C[C@@H]1CCCCO[C@H](CN(C)S(=O)(=O)c2cn(C)cn2)[C@@H](C)CN([C@H](C)CO)C(=O)c2cc(N(C)C)ccc2O1 returned A1 apoptosis 2 0.0.
C[C@@H]1CN([C@H](C)CO)C(=O)c2cc(NC(=O)NC3CCCCC3)ccc2O[C@@H](C)CCCCO[C@H]1CN(C)C(=O)Nc1ccc2c(c1)OCO2 was read as A1 apoptosis 2 1.4.
For C[C@H]1CN([C@@H](C)CO)C(=O)c2cc(NC(=O)C3CC3)ccc2O[C@H]1CN(C)Cc1ccc(C(=O)O)cc1 the results were A1 apoptosis 2 0.1.
For C[C@@H]1CN([C@H](C)CO)C(=O)c2cc(NC(=O)Nc3ccc4c(c3)OCO4)ccc2O[C@H]1CN(C)Cc1ccc(C(F)(F)F)cc1 the results were A1 apoptosis 2 -1.0.
For C[C@H]1CCCCO[C@H](CN(C)C(=O)c2ccccc2)[C@@H](C)CN([C@@H](C)CO)C(=O)c2cc(NS(=O)(=O)c3cccs3)ccc2O1 the results were A1 apoptosis 2 -0.3.
For Cc1noc(C)c1S(=O)(=O)Nc1cccc2c1O[C@@H](CN(C)Cc1ccc(C(=O)Nc3ccccc3N)cc1)[C@@H](C)CN([C@@H](C)CO)C2=O the results were A1 apoptosis 2 -1.1.
For CNC[C@@H]1Oc2c(N)cccc2C(=O)N([C@H](C)CO)C[C@@H]1C the results were A1 apoptosis 2 -0.1.

Remaining list, next part:
For COc1ccc(S(=O)(=O)N(C)C[C@@H]2Oc3ccc(NS(=O)(=O)c4ccc(Cl)cc4)cc3CC(=O)N([C@@H](C)CO)C[C@@H]2C)cc1 the results were A1 apoptosis 2 0.7.
`Cc1noc(C)c1S(=O)(=O)Nc1ccc2c(c1)C(=O)N([C@@H](C)CO)C[C@@H](C)[C@H](CN(C)S(=O)(=O)c1cn(C)cn1)O2` gave A1 apoptosis 2 1.5.
For C[C@@H]1CCCCO[C@@H](CN(C)S(=O)(=O)c2ccc(Cl)cc2)[C@@H](C)CN([C@@H](C)CO)C(=O)c2cc(NC(=O)c3ccccc3)ccc2O1 the results were A1 apoptosis 2 -0.1.
C[C@@H]1CN([C@@H](C)CO)C(=O)c2cccc(NC(=O)CCCCCC(=O)Nc3ccccc3N)c2O[C@H]1CN(C)Cc1ccc(-c2ccccc2)cc1 was read as A1 apoptosis 2 -0.6.
C[C@H](CO)N1C[C@H](C)[C@@H](CN(C)S(=O)(=O)c2ccccc2)Oc2c(NS(=O)(=O)c3cccs3)cccc2C1=O was read as A1 apoptosis 2 -0.3.
`CC(C)NC(=O)Nc1cccc2c1O[C@H](CN(C)C(=O)Nc1ccc(F)cc1)[C@@H](C)CN([C@@H](C)CO)C2=O` gave A1 apoptosis 2 0.3.
Screening C[C@H](CO)N1C[C@H](C)[C@H](CN(C)C(=O)NC2CCCCC2)OCCCC[C@H](C)Oc2ccc(NC(=O)Nc3ccc(C(F)(F)F)cc3)cc2C1=O returned A1 apoptosis 2 -0.2.
For COc1ccc(S(=O)(=O)Nc2ccc3c(c2)CC(=O)N([C@H](C)CO)C[C@H](C)[C@H](CN(C)S(=O)(=O)c2ccc(Cl)cc2)O3)cc1 the results were A1 apoptosis 2 -1.4.
For C=CCOC(=O)[C@@H]1[C@H]2C(=O)O[C@H](c3ccccc3)[C@H](c3ccccc3)N2[C@H](c2ccc(OCCOC(=O)[C@@H]3C[C@@H]4C(=O)N[C@@H](CC(C)C)C(=O)N4[C@@H]3c3ccc(O)cc3)cc2)[C@@]12C(=O)Nc1ccc(I)cc12 the results were A1 apoptosis 2 0.1.
Screening C[C@@H]1CCCCO[C@@H](CN(C)C(=O)Nc2ccc3c(c2)OCO3)[C@@H](C)CN([C@H](C)CO)C(=O)c2cc(N(C)C)ccc2O1 returned A1 apoptosis 2 1.0.
Screening C[C@@H]1CCCCO[C@@H](CN(C)C(=O)NC2CCCCC2)[C@@H](C)CN([C@@H](C)CO)C(=O)c2cc(NC(=O)Nc3ccc(C(F)(F)F)cc3)ccc2O1 returned A1 apoptosis 2 0.3.
For C[C@H](CO)N1C[C@H](C)[C@H](CN(C)S(=O)(=O)c2cn(C)cn2)Oc2ccc(NS(=O)(=O)c3cccs3)cc2CC1=O the results were A1 apoptosis 2 1.2.
Screening C[C@H]1CN([C@@H](C)CO)C(=O)c2cc(NC(=O)c3ccncc3)ccc2O[C@@H]1CN(C)Cc1ccc(Oc2ccccc2)cc1 returned A1 apoptosis 2 1.0.
For COc1cc(O)cc(OC)c1/C=N/NC(=O)CCCCCC(=O)Nc1ccccc1O the results were A1 apoptosis 2 1.1.
C[C@H](CO)N1C[C@H](C)[C@@H](CN(C)CC2CC2)OCCCC[C@H](C)Oc2ccc(NS(=O)(=O)c3ccc(Cl)cc3)cc2C1=O was read as A1 apoptosis 2 -0.2.
`CC(C)NC(=O)Nc1cccc2c1O[C@H](CN(C)Cc1ccc(Cl)c(Cl)c1)[C@@H](C)CN([C@@H](C)CO)C2=O` gave A1 apoptosis 2 -1.3.
Screening C[C@H]1CN([C@@H](C)CO)C(=O)c2cc(NC(=O)c3ccncc3)ccc2O[C@@H]1CN(C)Cc1ccc2c(c1)OCO2 returned A1 apoptosis 2 2.6.
`C[C@@H]1CN([C@@H](C)CO)C(=O)c2cc(NC(=O)Cc3ccccc3)ccc2O[C@@H]1CN(C)C(=O)Nc1cccc2ccccc12` gave A1 apoptosis 2 1.7.
For O=C(NO)c1cccc(C(=O)N/N=C/c2cccs2)c1 the results were A1 apoptosis 2 -0.1.
`C[C@@H]1CCCCO[C@H](CN(C)C(=O)c2ccncc2)[C@@H](C)CN([C@H](C)CO)C(=O)c2cc(NC(=O)Cc3ccccc3)ccc2O1` gave A1 apoptosis 2 1.4.
`C[C@@H]1CCCCO[C@H](CN(C)C(=O)C2CCCCC2)[C@H](C)CN([C@@H](C)CO)C(=O)c2cc(NC(=O)Cc3ccccc3)ccc2O1` gave A1 apoptosis 2 -0.5.
Cc1ccc(S(=O)(=O)Nc2ccc3c(c2)CC(=O)N([C@@H](C)CO)C[C@@H](C)[C@@H](CN(C)Cc2ccc(Cl)c(Cl)c2)O3)cc1 was read as A1 apoptosis 2 0.5.
`CNC[C@H]1Oc2ccc(NC(=O)C3CC3)cc2CC(=O)N([C@@H](C)CO)C[C@H]1C` gave A1 apoptosis 2 -1.5.
For COc1ccc(CN(C)C[C@H]2Oc3ccc(NC(=O)Nc4ccc5c(c4)OCO5)cc3C(=O)N([C@H](C)CO)C[C@H]2C)cc1 the results were A1 apoptosis 2 -0.3.
For C[C@H](CO)N1C[C@H](C)[C@@H](CN(C)Cc2ccncc2)OCCCC[C@H](C)Oc2ccc(NC(=O)Nc3ccc4c(c3)OCO4)cc2C1=O the results were A1 apoptosis 2 1.8.
Cc1noc(C)c1NC(=O)Nc1ccc2c(c1)C(=O)N([C@@H](C)CO)C[C@@H](C)[C@@H](CN(C)CC1CCCCC1)OCCCC[C@@H](C)O2 was read as A1 apoptosis 2 0.1.
`C[C@H]1CN([C@@H](C)CO)C(=O)Cc2cc(NC(=O)Cc3cn(C)c4ccccc34)ccc2O[C@@H]1CN(C)C(=O)Nc1ccc2c(c1)OCO2` gave A1 apoptosis 2 0.4.
Screening C[C@@H]1CN([C@H](C)CO)C(=O)c2cc(NS(C)(=O)=O)ccc2O[C@@H]1CN(C)S(=O)(=O)c1cn(C)cn1 returned A1 apoptosis 2 1.9.
`Cc1noc(C)c1S(=O)(=O)Nc1ccc2c(c1)C(=O)N([C@H](C)CO)C[C@H](C)[C@H](CN(C)C(=O)Nc1ccc(F)cc1)OCCCC[C@H](C)O2` gave A1 apoptosis 2 0.1.
For C[C@H](CO)N1C[C@H](C)[C@@H](CN(C)CC2CCCCC2)Oc2ccc(NC(=O)Cn3cnnn3)cc2C1=O the results were A1 apoptosis 2 0.8.

An excerpt (hit frequency here may not be typical).
